Rango release inh: qHTS Assay for Inhibitors of RanGTP induced Rango (Ran-regulated importin-beta cargo) - Importin beta complex dissociation; Snurportin-1 (Homo sapiens) + GTP-binding nuclear protein Ran (Homo sapiens) + Importin …; Biochemical FRET Rango-importin beta, RanGTP-induced dissociation; Potency, µM (highest dose often 46.1 µM), for the others: at the highest dose activity change, negative = inhibition; 0.071% of 340,000 active; AID 540253, 2011; active means falling FRET ratio curve, often poorly fitted, with flat reads before Ran was added; inconclusive means other falling curves, or compound fluorescence or quenching; inactive means flat or rising ratio curve;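 further: potency means the concentration at half of the fitted maximal effect; % of control where 0% means no effect; nearly all actives have a fitted effect of over 45% in size; -100% = wells without RanGTP and RCC1; the record marks most hits as doubtful in a second field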
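Quantitative HTS using a FRET biosensor: 0.1 uM Rango, 0.25 uM importin beta, 0.6 uM Ran, 2 mM GTP, 0.2 uM RCC1 final, PBS with DTT, Tween-20 and BSA. Post-read taken 45 min after Ran addition.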
miR-21 FLuc: qHTS Assay for Modulators of miRNAs and/orActivators of miR-21. HeLa miR-21 FLuc reporter, luciferase, 48 h. Potency, µM (series often up to 38.3 µM), for the others: top-dose reporter change, positive = more light. 340,000 tested, under 10 active; active = well fitted rising curve with a large enough effect; inconclusive = small, poorly fitted or top-dose-only effect; inactive = no such curve, though single readings can be large or run the other way;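 further: % of control where 0% means no effect; miR-21 action dims this reporter so a rising signal means less miR-21 action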
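Compounds were titrated across several concentrations (up to approximately 40 uM) and incubated 48 hours with HeLa miR-21-FLuc reporter cells (miR-21 target sequence downstream of FLuc, endogenous miR-21). Readout was firefly luciferase luminescence after lytic detection reagent.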
GLA inh pH 4.5: qHTS Assay for Inhibitors of Human alpha-Galactosidase at pH 4.5 | 230,000 tested, under 10 active | purified enzyme, 4-MU-alpha-Gal fluorescence, pH 4.5 | activity change, negative = inhibition, % at 105 µM | Alpha-galactosidase A (Homo sapiens), P06280; inconclusive = small, poorly fitted or top-dose-only inhibition, or a rising curve; inactive = flat fitted curve, though single readings scatter; no compound was filed as active;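 further: 0% = full activity with enzyme and -100% = basal without enzyme; dose as in the result columns while the protocol names 77 µM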
Target sequence (P06280 whole entry, looked up): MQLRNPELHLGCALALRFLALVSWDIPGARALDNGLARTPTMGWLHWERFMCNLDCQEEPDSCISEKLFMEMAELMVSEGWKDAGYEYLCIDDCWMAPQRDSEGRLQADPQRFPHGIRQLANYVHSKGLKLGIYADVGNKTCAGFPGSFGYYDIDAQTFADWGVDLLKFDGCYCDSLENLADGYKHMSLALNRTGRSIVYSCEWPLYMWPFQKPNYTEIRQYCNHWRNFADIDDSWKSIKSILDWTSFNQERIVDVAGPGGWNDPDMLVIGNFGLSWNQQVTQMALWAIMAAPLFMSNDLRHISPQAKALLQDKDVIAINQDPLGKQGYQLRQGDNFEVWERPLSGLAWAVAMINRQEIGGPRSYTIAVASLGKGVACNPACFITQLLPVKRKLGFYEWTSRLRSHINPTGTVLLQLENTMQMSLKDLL
Rango-impB inh: qHTS Assay for Inhibitors of Rango (Ran-regulated importin-beta cargo) - Importin beta complex formation; Importin subunit beta-1 (Homo sapiens), Q14974; Rango CFP/YFP FRET sensor + importin beta, 45 min; Potency, µM (highest dose often 92.2 µM), for the others: at the top dose inhibition of complex formation; 0.031% of 340,000 active; AID 540263, 2011; active = rising FRET ratio curve, often small or poorly fitted; inconclusive = mostly compound fluorescence or quenching in the first reads; inactive = flat curves in all reads;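 further: potency means the concentration at half of the fitted maximal effect; 0% = DMSO wells and 100% = buffer wells lacking importin beta; nearly all actives have a fitted effect of over 15% in size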
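FRET biosensor (snurportin 1 IBB flanked by EYFP and cerulean), 50 nM, with compound 5 min, then 0.125 microM importin beta in PBS, 1 mM DTT, 0.02% Tween-20, 0.1% BSA. CFP/YFP ratio read after 45 min at room temperature; pre-read flags interference.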
* hit, by the source's call; ? = inconclusive; / = not tested or not shown; & = joins results of further samples. Some of the compounds tested; rates above refer to the full screens.

Rango release inh	miR-21 FLuc	GLA inh pH 4.5	Rango-impB inh	Compound
14%	-22%	5	-2.3%	O=C(NCCc1ccccc1)C(=O)Nc1ccc2c(c1)OCCO2
3%	0%	0	2.6%	COc1cccc(NC(=O)C(c2ccccc2)N2CCCC2)c1 (configuration not stated)
0%	-1%	0	-1.3%	O=C(NCCCN1CCCC1=O)c1cccc(N2CCCC2=O)c1
-5%	-62%	1	-4.8%	COC(=O)c1c(C)[nH]c(C(=O)OCc2ccc(F)cc2)c1C
-1%	1%	2	-2.5%	Cc1cc(C(c2ccc(C)o2)c2ccc(C)o2)c(O)c([N+](=O)[O-])c1
?	16%	/	?	N#CC1=C(N)Oc2cc(N)ccc2C1c1cccc(F)c1 (configuration not stated)
-7%	5%	6	0.2%	CCOC(=O)N1CCC(NC(=O)C2CCN(C(=O)N3CC(C)Oc4ccccc43)CC2)CC1 (configuration not stated)
/	-7%	-5	/	O=C(Nc1nnc(-c2ccccc2Cl)o1)c1cc2cc([N+](=O)[O-])ccc2s1
4%	-6%	/	3.2%	O=C(Cc1c(F)cccc1Cl)Nc1nccs1
1%	27%	-3	0.7%	Cc1ccc(S(=O)(=O)c2c(C)nn(C(C)(C)C)c2OC(=O)c2ccco2)cc1
?	-5%	-15	?	CC1(C)OC(c2ccccc2)=C/C(=C/C=Nc2ccccc2)O1
6%	1%	-2	-1.7%	O=C(c1c(F)c(F)c(F)c(F)c1F)N(Cc1ccccc1)Cc1ccccc1
4%	25%	/	-1.0%	COc1ccc(-c2csc3ncnc(NCCCO)c23)cc1
2%	0%	9	-0.3%	COc1cc(C(c2sc3nc(C)nn3c2O)N2CCc3ccccc3C2)cc(OC)c1OC (configuration not stated)
5%	-7%	3	-0.8%	O=C(CCSc1nnc(-c2ccncc2)o1)Nc1ccccc1
-1%	21%	/	-0.2%	Cc1ccc(-c2onc(C)c2C)cc1S(=O)(=O)N1CC(C)Oc2ccccc21 (configuration not stated)
1%	-28%	/	0.7%	Cc1ccc(NC(=O)O/N=C/c2ccc(N(C)C)cc2)cc1
-12%	/	/	-3.0%	COC(=O)c1ccc(-c2c(-c3ccccc3)ncc3cc(F)ccc23)cc1
-2%	-19%	/	-5.3%	COc1ccc(-c2coc3c(C)c4oc(=O)c(CCC(=O)O)c(C)c4cc23)cc1
-2%	1%	/	2.3%	O=C(O)CNS(=O)(=O)c1ccc2c(c1)C(=O)c1cc(S(=O)(=O)NCC(=O)O)ccc1-2
-14%	-14%	-15	2.3%	COc1ccc(C(=O)/C=C/N(C)C)cc1
6%	3%	10	-0.3%	CCCCCN(C(=O)CCCSc1nncs1)c1c(N)n(CCCC)c(=O)[nH]c1=O
-17%	/	/	-0.2%	O=C(NN1CCOCC1)c1cccc(F)c1
-7%	1%	6	-5.9%	CCOC(=O)N1CCN(C(=S)NC(=O)c2ccnn2C)CC1
-3%	1%	/	5.0%	CC(C)Cc1nnc(NC(=O)CCC(=O)N2CCN(Cc3ccccc3)CC2)s1
-6%	/	3	3.3%	O=C(NCO)c1cccnc1
14%	/	/	?	C1CCN(CC2CCCCN2)CC1 (configuration not stated)
-15%	0%	2	-0.8%	CCC(C)(C)NC(=O)C(c1cccc(OC)c1OC)N(CCC(C)C)C(=O)CCC(=O)Nc1cc(C)on1 (configuration not stated)
0%	0%	/	-0.2%	COc1ccc(C2C(C(C)=O)=C(C)Nc3ncnn32)cc1 (configuration not stated)
-4%	-22%	4	0.2%	Cc1ccc2nc(SCC(=O)N3CCOCC3)[nH]c2c1
7%	-1%	1	1.8%	CCCCCC(=O)Nc1cccc(C2=NOC3(C2)C[C@H](C(N)=O)N(C(=O)CC)C3)c1 (some centres not stated)
-7%	2%	-6	-2.3%	COc1ccc(C(NC(=O)c2ccc(=O)[nH]c2)C(=O)Nc2ccc(C(C)C)cc2)cc1 (configuration not stated)
?	-12%	/	-0.6%	COc1cc2ccccc2cc1C(=O)N(CCN(C)C)c1nc2c(F)cc(F)cc2s1
5%	2%	-2	3.1%	CCOc1ccc(Br)cc1S(=O)(=O)N1CCC(C(N)=O)CC1
19%	3%&-2%	/	0.6%	COc1ccc(NC(=O)c2cc(S(=O)(=O)N3CCCC3)ccc2OC)cc1
-14%	2%	-2	?	CCc1cc(/C(Cc2cscn2)=N\O)c(O)cc1O
-1%	/	/	-1.9%	Nc1c(C(=O)Nc2ccc3c(c2)OCCO3)nnn1Cc1ccccc1
0%	0%	/	-3.2%	COc1ccc(-c2cn(CCc3c[nH]c4ccccc34)nn2)cc1
5%	-2%	/	?	CCOc1ccccc1-c1noc(CCC(=O)NC2CCCCC2)n1
30%	1%	/	3.4%	COc1ccc(S(=O)(=O)N2CCN(C)CC2)c(C)c1
27%	-3%	-9	-1.2%	COc1ccc2ccccc2c1CN1CCCC(CO)C1 (configuration not stated)
-9%	3%	4&-2	3.4%	C[C@H](CO)NC(=O)[C@H](C)[C@@H]1C[C@@]1(C)[C@@H](NC(=O)OCc1ccccc1)c1ccccc1
-13%	-15%	2	0.8%	COc1ccc(-c2nsc(SCC(=O)Nc3cc(C)on3)n2)cc1
-5%	-53%	12	-1.7%	O=C(NNc1nc2ccccc2s1)Nc1ccc(F)cc1
4%	-6%	/	-3.6%	CC(NC(=O)c1ccc(CS(C)(=O)=O)cc1)c1cccc2ccccc12 (configuration not stated)
?	2%	-4	?	COc1ccc(-c2cc(=O)oc3cc(OC(=O)C4CCCCC4)ccc23)cc1
2%	9%	-11	2.9%	NC(=O)C1CCN(C2=C(Cl)C(=O)c3ccccc3C2=O)CC1
1%	-1%	/	-6.4%	CCN(c1cccc(C)c1)S(=O)(=O)c1ccc(-c2coc(C)n2)cc1
-4%	7%	6	-0.2%	COc1ccccc1N1CC(C(=O)Nc2nnc(SCc3ccccn3)s2)CC1=O (configuration not stated)
-2%	2%	-10	-3.1%	Fc1c(F)c(C(F)(F)F)c(F)c(F)c1N/N=C\c1cccs1
5%	-7%	-18	-1.9%	CN(CC(=O)NCc1ccncc1)S(=O)(=O)c1ccccc1
-11%	16%	-17	-2.7%	Nc1nc(CN2CCN(C(c3ccccc3)c3ccccc3)CC2)nc(Nc2ccccc2)n1
1%	-3%	0	1.2%	CCN(CC)S(=O)(=O)c1ccc(N/N=C(\C)c2ccc3c(c2)OCO3)c([N+](=O)[O-])c1
?	7%	1	?	COCCNC(=O)c1cccc(Nc2nc(-c3ccccc3)c3cc(Cl)ccc3n2)c1
8%	-1%	-3	-2.0%	O=C(COC(=O)c1ccc(Br)c(S(=O)(=O)N2CCOCC2)c1)NCC1CCCO1 (configuration not stated)
6%	-3%	1	-0.4%	CCN(CC)CCOC(=O)c1cccc(Cl)c1

Next compounds follow.
Rango release inh	miR-21 FLuc	GLA inh pH 4.5	Rango-impB inh	Compound
?	6%	10	0.6%	CCCn1c(SCC(=O)N2CCN(C(=O)c3ccco3)CC2)nc2ccccc2c1=O
-2%	-1%	/	-3.5%	COc1ccc(N2CCN(S(=O)(=O)c3cc4c(cc3C)NC(=O)CO4)CC2)cc1
?	-7%	-15	?	COC(=O)/C(=C\c1cc(OC)c(OC)c(OC)c1)c1nc2ccccc2[nH]1
-16%	1%	-1	6.7%	Cc1csc2c(N3CCN(S(=O)(=O)c4ccc(Cl)cc4)CC3)ncnc12
-15%	7%	7	-2.8%	Cc1ccccc1C(=O)NCc1nnc(SCC(=O)N2CCN(c3ccccc3)CC2)n1C
5%	-4%	17	-0.8%	Brc1c(CSc2nncn2-c2ccccc2)nc2ncccn12
-13%	-1%	-7	-0.1%	Cc1cc(NC(=O)CCN2C(=O)/C(=C\c3ccccc3)SC2=S)no1
9%	-2%	-4	-1.2%	Cc1ccc(S(=O)(=O)N2CCCC2C(=O)NCCc2ccccc2)cc1 (configuration not stated)
/	9%	1	/	C/C(CCN1CCc2nc(-c3ccccc3)c(-c3ccccc3)cc2C1)=N\O[C@H](C)c1cn([C@H](CO)Cc2ccccc2)nn1
6%	/	/	-5.9%	Nn1c(COc2cccc(Br)c2)nnc1SCC(=O)NCC1CCCO1 (configuration not stated)
-29%	-3%	/	-0.3%	CC(C)OCCCNC(=O)Cn1ccc2cc(S(=O)(=O)N3CCCCC3)ccc21
2%	-14%	-8	-1.4%	CCc1c(O)nc(SCC(=O)Nc2ccc(C)cc2)n(C2CCCCC2)c1=O
-20%	-6%	8	0.7%	CC(C)(C)NS(=O)(=O)c1ccc(CCC(=O)N2CCCCC2)cc1
-29%	0%	-8	?	O=C(O)/C=C/c1ccc2c(-c3ccccc3)onc2c1
1%	0%	0	-0.8%	COc1ccccc1C(C)NC(=O)CCOc1cccc(C)c1 (configuration not stated)
14%	5%	/	-1.8%	Cc1cc(Cl)ccc1NC(=S)N1CCN(C(=O)c2ccco2)CC1

In a second layout: two of the compounds above
Second line of a record: Rango release inh | miR-21 FLuc | GLA inh pH 4.5 | Rango-impB inh
COc1ccccc1C(C)NC(=O)CCOc1cccc(C)c1 (configuration not stated)
 : 1% | 0% | 0 | -0.8%
C/C(CCN1CCc2nc(-c3ccccc3)c(-c3ccccc3)cc2C1)=N\O[C@H](C)c1cn([C@H](CO)Cc2ccccc2)nn1
 : / | 9% | 1 | /

Other results follow:
Rango release inh	miR-21 FLuc	GLA inh pH 4.5	Rango-impB inh	Compound
10%	7%	5	2.2%	Cc1cccc(NC(=O)c2onc3c2CCCC3)n1
-14%	-5%	6	-2.1%	Cc1csc(C(=O)O)c1-c1c(C)csc1C(=O)O
-2%	/	/	1.3%	O=C(NCC(=O)N1CCCCCCC1)c1ccc(Cl)cc1
12%	-3%	2	-1.4%	Cc1cccc(NCC(O)Cn2cnc3c2c(=O)n(C)c(=O)n3C)c1 (configuration not stated)
-9%	-1%	-4	-2.5%	CC(C)CNS(=O)(=O)c1ccc(CCC(=O)N2CCC(C(N)=O)CC2)cc1
18%	/	/	1.0%	COc1cccc(NC(=O)CN(C)C(=O)c2cc3c(s2)CCCC3)c1
2%	-21%	0	0.7%	O=C(Nc1ccc([N+](=O)[O-])cn1)C1CCCCC1
1%	-1%	-2	-2.2%	COc1ccccc1NS(=O)(=O)c1cc(NC(=O)CNC(=O)c2ccccc2)ccc1C

Already shown: entries from further up.
Rango release inh	miR-21 FLuc	GLA inh pH 4.5	Rango-impB inh	Compound
19%	3%&-2%	/	0.6%	COc1ccc(NC(=O)c2cc(S(=O)(=O)N3CCCC3)ccc2OC)cc1
-14%	2%	-2	?	CCc1cc(/C(Cc2cscn2)=N\O)c(O)cc1O

(cont.)
Rango release inh	miR-21 FLuc	GLA inh pH 4.5	Rango-impB inh	Compound
0%	-16%	-1	-0.4%	OC(COCCC12CC3CC(CC(C3)C1)C2)CN1CCCCC1 (configuration not stated)
15%	15%	1	-3.0%	C=C(C)Cn1c(=O)c2c(nc3n2CCN3c2cccc(Cl)c2C)n(C)c1=O
?	-6%	0	1.5%	CN(CCNC(=O)c1ccc(/C=N/O)nc1)Cc1ccccc1
0%	6%	/	-3.4%	COc1ccc(CN(C)C(=O)c2ccccc2Sc2ccccc2C#N)cc1OC
-7%	-1%	-12	-3.0%	COc1ccc(Cl)cc1NC(=S)NCCSc1ccc(C)cc1
2%	4%	/	0.4%	CCC(CO)N=CC1=C(O)CC(c2ccccc2)CC1=O (configuration not stated)
-9%	0%	6	-4.7%	O=C(CSc1nc2ccccc2o1)NC(=O)NCc1ccccc1
-14%	/	/	-5.9%	C=C(C)C(O)COc1c2occc2c(OC)c2ccc(=O)oc12 (configuration not stated)
-7%	-1%	-12	2.1%	Cc1cc(C)c(NC(=O)CS(=O)CC(=O)NC2CCCc3ccccc32)c(C)c1 (configuration not stated)
1%	/	/	?	Cc1ccccc1S(=O)(=O)Nc1ncnc2sccc12
6%	/	/	-1.9%	CCCN(CC(=O)Nc1ccccc1C)C(=O)c1ccc(S(=O)(=O)N2CCCC2)cc1

Screens deposited in PubChem BioAssay by National Center for Advancing Translational Sciences (NCATS).
